# S aureus helic = inhibitors of S. aureus replicative helicase, primary screen, biochemical, fluorescence unwinding readout | hit rate 0.05% among 120,000 | inhibition, %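 (tested at about 80 µM)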 | purified S. aureus helicase, fluorescence unwinding assay; about half of the hits fall short of the stated cut | replicative DNA helicase (DnaC/DnaB), Staphylococcus aureus;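 active = both duplicates at 50% or more, or one of them with a favoured structure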;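 also: 0% = mean of negative control wells and 100% = mean of positive control wells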
# MgrA DNA FP = S. aureus MgrA activity modulators, primary screen, biochemical, S. aureus Newman, fluorescence polarization | MgrA-DNA binding | inhibition, %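 (about 10 µg/mL by stock and volumes)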 | hit rate 0.13% among 84,000 | AID 602314, 2012;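 active = above 50% in either of two replicates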;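 also: 0% = protein plus DNA without compound and 100% = DNA alone without protein; higher means less MgrA bound to DNA so lower polarization; one replicate is shown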
# Numbers without * were called inactive; x = no result given; & = joins results of further samples.
S aureus helic	MgrA DNA FP	Compound
-11&4	x	C=CCn1c(CNC(C)=O)nc2ccccc21
24	x	CC(C)(C)NC(=O)NNc1nc2ccc(Cl)cc2s1
-2	0.3	O=C(O)CSc1ccc2ccccc2c1
18	x	CCc1ccccc1N(C)C(=O)CCn1cnc2onc(-c3ccc(F)cc3)c2c1=O
13	-5.2	Cc1nc(C)c(CC(=O)O)c(=O)[nH]1
-11	x	Cc1cc(C(=O)NNC2=NCCCCC2)n[nH]1
x	-1.6	N#Cc1c[nH]c2ccc(NC(=O)/C=C/c3ccc(OC(F)(F)F)cc3)cc12
5	-0.2	COC(=O)c1nc(C(=O)OC)c(C(=O)OC)nc1C(=O)OC
14	x	Cn1c(=O)c2c(nc(CN3CCN(c4ccc(F)cc4)CC3)n2CCN2CCOCC2)n(C)c1=O
0	x	O=S(=O)(NCCc1c[nH]c2ccccc12)c1ccccc1
-1	x	S=c1nc(-c2cccs2)[nH]n1CN1CCOCC1
13	x	CN(C)C(=O)Cn1c(Cl)nc2c1c(=O)n(C)c(=O)n2C
x	-1.2	S=C(NCc1ccco1)Nc1ccc(Cl)cc1
12	0.9	CCN(C(=O)CCc1nc(-c2ccccc2F)no1)c1cc(Cl)ccc1OC
12	x	Cc1nn(-c2ccccc2)c(C)c1CN(C)C(=O)CN1C(=O)COc2ccccc21
-9	x	COc1ccc(-n2c(O)cnc2Nc2nc(C)cc(C)n2)cc1OC
10	x	CN(CC(=O)O)S(=O)(=O)c1ccc(Cl)cc1
10	15	O=C1NC(=O)N(C2CCCCC2)C(=O)/C1=C/c1ccc(Br)cc1
6	x	CCC(c1nnc(SCC(=O)Nc2nc(-c3ccc(OC)cc3)cs2)o1)N(C)C (stereo not drawn)
13	x	Clc1ccc(-c2cn3c(n2)CCC3)cc1Cl
4	x	Cc1ccc(O)c(C(=O)c2cnc3onc(-c4ccc(F)cc4)c3c2)c1
x	-2.4	O=C(CCN1CCC(c2cccs2)=N1)c1cccs1
-11	x	CC1CCCCC1NC(=O)CN(C)S(=O)(=O)c1ccc2c(c1)c(=O)n(C)c(=O)n2C (stereo not drawn)
-5	x	COc1ccccc1N=c1scc(-c2ccco2)n1/N=C/c1ccco1
7	x	CCCNC(=O)c1cc(-c2ccc(OC)cc2)n(CCCOC)c1C
8	0.7	COc1cc2c(cc1OC)C(=NCCC(=O)O)NC(C)(C)C2
13	0.8	CCN(c1ccc(C)c(C)c1)S(=O)(=O)c1ccc2c(c1)oc(=O)n2C
6	-1.1	CNC(=O)COC(=O)c1ccc(Cl)c(Cl)c1
3	-2.4	Cc1[nH]c2ccccc2c1C1(O)C(=O)N(CCc2ccccc2)c2ccc(Br)cc21 (stereo not drawn)
0	-7.3	CC1CN(C2CC(O)C(CO)O2)C(=O)NC1=O (stereo not drawn)
4	0.3	Cc1ccc(S(=O)(=O)N2CC3CCC2C3)cc1 (stereo not drawn)
0	-1.1	CCOc1ccc2[nH]c(=O)c(CN(Cc3ccccc3OC)C(=O)N3CCCC3)cc2c1
-15	x	Cc1n[nH]c(C)c1NC(=O)CN(C)c1nc(-c2cccnc2)nc2ccccc12
8	0.9	CC(C)CN1C(=O)c2ccc(C(=O)Nc3ccc(F)cc3)cc2C1=O
5	-0.3	OCCOc1ccc(OCCO)cc1
-3	x	Cc1ccc(NCc2cccn2-c2nnc(N3CCCCC3)s2)cc1
20	1.4	CCN(CC)S(=O)(=O)c1ccc(SC)cc1
14	x	CC(C)(C)NC(=O)NCC(c1ccco1)N1CCc2ccccc2C1 (stereo not drawn)
-14	-0.5	c1ccc(CCn2c(CSc3nc4ccccc4o3)nc3ccccc32)cc1
5	-1.1	O=C(/C=C/c1ccc(Cl)cc1Cl)NCc1cccnc1
0	x	COc1ccc(N=Cc2ccc(C)o2)cc1
x	-1.8	COc1ccc2c(OC(C)=O)coc2c1
-11	x	Cc1nc(SCC(=O)c2ccc(NS(C)(=O)=O)cc2)n(C2CCCCC2)c1C
x	0.0	CN(C(=O)CC#N)c1ccc(F)cc1F
17	1.2	Cc1ccc(CSc2nnc(-c3ccncc3)n2CC2CCCO2)cc1 (stereo not drawn)
x	1.4	O=S(=O)(Nc1ccccc1)c1ccc2c(c1)CCO2
-20	x	Cc1c(C)n(Cc2ccc(Cl)cc2)c2ccc(C(=O)NCc3ccco3)cc12
8	0.9	CN1CCc2c(sc3c2C(=O)NC(/C=C/c2ccco2)N3)C1 (stereo not drawn)
9	1.4	CN(c1ccc(Cl)cc1)c1cc(=O)n(C)c2ccccc12
0	x	NC(=O)C1CCCN(C(=O)c2ccc3c(c2)NC(=O)CS3)C1 (stereo not drawn)
x	2.8	O=C(O)c1cc(NC(=O)c2ccc(N3C(=O)C4C5C=CC(C5)C4C3=O)cc2)cc(C(=O)O)c1 (stereo not drawn)
-1	x	CC(C)NC(=O)CN1Cc2ccccc2C1=O
x	0.0	O=C1/C(=C/c2cccs2)CCc2ccccc21
2	-2.6	Cc1ccc(NC2CC(C)Nc3cc(C)ccc32)cc1 (stereo not drawn)
1	0.5	COc1ccc(Br)cc1C(=O)Nc1ccc(-c2nnc(-c3ccco3)o2)cc1
9	x	Cc1ccn2cc(-c3cccc(NS(C)(=O)=O)c3)nc2c1

# Other results follow:
S aureus helic	MgrA DNA FP	Compound
16	x	CC1(C)CC(=O)C(C=NCC2CCN(C(=O)c3ccccc3)CC2)=C(O)C1
-17	x	Cc1nc2sc(C(c3ccc(F)cc3)N3CCN(C)CC3)c(O)n2n1 (stereo not drawn)
4	x	COc1ccnc(C(=O)O)c1
9	0.2	Cc1ccc(CN2C(=O)CCC2C(=O)NC(C)C)cc1 (stereo not drawn)
10	x	CC(=O)Nc1ccc(/C=N/OCC(=O)Nc2ccc(C)cc2)cc1
x	3.0	NCC(O)CC(=O)O (stereo not drawn)
6	3.5	COc1cccc(NC(=O)CNC(=O)Cn2cnc3sc4c(c3c2=O)CCCC4)c1
-1	x	COc1ccc(N2CC(NC(=O)Nc3ccc(S(=O)(=O)NC(C)=O)cc3)CC2=O)cc1 (stereo not drawn)
x	3.9	O=C(c1c(F)cccc1F)N1CCSCC1
-13	x	Cc1cc(C(=O)CSc2nc3ccc(Cl)cc3[nH]2)c(C)n1Cc1ccco1
-15	-2.8	O=C(COC(=O)C1CCC(=O)N1)Nc1ccc(Cl)cc1Cl (stereo not drawn)
4	x	O=C(CN1C(=O)NC(Cc2c[nH]c3ccccc23)C1=O)c1ccc(F)cc1 (stereo not drawn)
5	x	CC(=O)NS(=O)(=O)c1ccc(NC(=O)Cn2cnc3c2c(=O)n(C)c(=O)n3C)cc1
12	-0.3	CC1CCCCC1NC(=O)CCCn1ncn2c(cc3occc32)c1=O (stereo not drawn)
8	x	CCCn1c(SCCCC(=O)c2cccs2)n[nH]c1=O
9	x	C/C(N)=C(/C#N)C(=O)Cn1nc(C(=O)O)c2ccccc2c1=O
2	x	CCOC(=O)N1CCC(n2c(SCC(=O)Nc3nccs3)nc3ccsc3c2=O)CC1
19	x	Cn1/c(=N/N=c2\oc3ccccc3n2C)oc2ccccc21
12	-0.8	CCc1ccc(CN2CCC(N3CCCCC3)CC2)cc1
6	-0.2	COC(=O)c1ccccc1NC(=O)N1CCCc2cc(C)ccc21
6	x	CC(C)(C)OC(=O)N1CCC[C@H]1C(=O)OCc1ccc(Cl)cc1Cl
33	17	O=C1OC(c2ccccc2)OC(=O)C1=C/C=C/c1ccccc1 (stereo not drawn)
2	x	CN(C)C(=O)Cn1nc(C(=O)O)c2ccccc2c1=O
9	x	CCC1CCCCN1C(=O)c1cc(-c2ccccc2OC)on1 (stereo not drawn)
12	1.2	Nn1c(Cc2ccccc2)nc2sc3c(c2c1=O)CCCC3
30	0.7	COC(=O)c1ccc(N2CCN(C)CC2)c(NC(=O)c2ccc(C#N)cc2F)c1
x	-1.8	COc1ccc(C(=O)CSc2n[nH]c(=O)n2C(C)c2ccccc2)cc1 (stereo not drawn)
-3	x	Cc1cccc(C)c1NC(=O)CN(C)c1ccc(S(=O)(=O)N(C(C)C)C(C)C)cn1
13	1.1	Nc1nc(-c2ccc(Cl)c(Cl)c2)cs1
25	x	O=C(CSC1=NC(=O)C(c2ccccc2)C(=O)N1)Nc1nc2ccccc2s1 (stereo not drawn)
x	-2.1	COc1ccc(C2=NN(C(=O)CCCC(=O)O)C(c3ccc(OC)cc3)C2)cc1 (stereo not drawn)
30	x	CCOC(=O)c1cc(-c2csc(CS(=O)(=O)c3ccccn3)n2)on1
x	-1.3	O=C(Nc1ccc(Cl)cc1)OC1CCSC1 (stereo not drawn)
12	x	COc1cc(NC(=O)c2ccc3c(=O)n4c(nc3c2)CCCCC4)cc(OC)c1OC
27	x	CCOC(=O)c1c(C)n(C)c2ccc(OCC(O)CN3C(=O)c4ccccc4S3(=O)=O)cc12 (stereo not drawn)
-4	x	CCN=C1NC(=O)C(CC(=O)NCCc2ccccc2)S1 (stereo not drawn)
-5	x	O=C(NCc1ccc(Cl)cc1)c1ccc(-n2cnnn2)cc1
-2	-1.9	CCOc1ccc(-c2ncccc2O)cc1
17	-1.2	COc1ccc(/C=N/N2CCOCC2)cc1O
2	x	Cc1ccccc1NC(=O)/C=C\C(N)=O
9	x	COC(=O)c1c(-c2ccc(F)cc2)noc1N
9	0.4	Cc1c(NC(=O)c2ccc(S(=O)(=O)N3CCCC3)cc2)c(=O)n(-c2ccccc2)n1C
11	-0.4	CC(=O)Nc1nc(C)c(C(C)C)s1
x	-0.2	CC(=O)c1c(C)n(O)c2ccc3nonc3c12
5	x	Cc1nn(-c2ccccc2)c2c1C(c1ccc3c(c1)OCO3)C(C#N)C(=O)N2 (stereo not drawn)
-4	3.6	O=C(/C=N/O)c1ccc(Cl)cc1Cl
10	x	Cc1[nH]c2ccccc2c1SCC(=O)NCc1ccco1
8	x	CC(=O)Nc1nc(CC(=O)O)cs1

# Arranged by SMILES length (ascending): some entries from above
S aureus helic	MgrA DNA FP	Compound
x	3.0	NCC(O)CC(=O)O (stereo not drawn)
-2	-1.9	CCOc1ccc(-c2ncccc2O)cc1
x	3.9	O=C(c1c(F)cccc1F)N1CCSCC1
-11&4	x	C=CCn1c(CNC(C)=O)nc2ccccc21
13	-5.2	Cc1nc(C)c(CC(=O)O)c(=O)[nH]1
x	-2.4	O=C(CCN1CCC(c2cccs2)=N1)c1cccs1
8	x	CCCn1c(SCCCC(=O)c2cccs2)n[nH]c1=O
5	-1.1	O=C(/C=C/c1ccc(Cl)cc1Cl)NCc1cccnc1
0	x	O=S(=O)(NCCc1c[nH]c2ccccc12)c1ccccc1
9	1.4	CN(c1ccc(Cl)cc1)c1cc(=O)n(C)c2ccccc12
5	-0.2	COC(=O)c1nc(C(=O)OC)c(C(=O)OC)nc1C(=O)OC
30	x	CCOC(=O)c1cc(-c2csc(CS(=O)(=O)c3ccccn3)n2)on1
6	3.5	COc1cccc(NC(=O)CNC(=O)Cn2cnc3sc4c(c3c2=O)CCCC4)c1
2	x	CCOC(=O)N1CCC(n2c(SCC(=O)Nc3nccs3)nc3ccsc3c2=O)CC1
-11	x	CC1CCCCC1NC(=O)CN(C)S(=O)(=O)c1ccc2c(c1)c(=O)n(C)c(=O)n2C (stereo not drawn)
9	0.4	Cc1c(NC(=O)c2ccc(S(=O)(=O)N3CCCC3)cc2)c(=O)n(-c2ccccc2)n1C

# The results go on:
S aureus helic	MgrA DNA FP	Compound
x	1.8	O=C(CSCC(=O)c1ccccc1)c1ccccc1
24	10	Cc1cc(C)c(CC2C(=O)c3ccccc3C2=O)cc1C
-12	-1.1	O=C(NCc1ccco1)c1cc(-c2ccccn2)nc2ccccc12
x	0.6	Cc1ccc(OCc2nnc(SCC(=O)c3ccc([N+](=O)[O-])cc3)n2-c2ccccc2)c2c1CCC2
-11	x	COc1ccc(CN(C)C(=O)C2CCCN2C(=O)c2cccs2)cc1 (stereo not drawn)
9	x	CN(C)C(=O)c1nnc(Cc2ccc(Cl)cc2)o1
5	0.2	O=C(CSc1nc2ccccc2nc1N1CCCC1)NCCc1ccc(Cl)cc1
-203	x	CCOC(=O)c1sc(N)c(C#N)c1COC(=O)c1ccc(S(=O)(=O)N2CCCC2)cc1
5	x	N#CCn1c(COC(=O)C2CC(=O)N(CCc3ccccc3)C2)nc2ccccc2c1=O (stereo not drawn)
10	x	Cc1ccc(NC(=O)Nc2c(C)nn(C)c2C)cc1
11	-1.4	Cn1c(-c2ccc3nc(N)sc3c2)nc2cc(N)ccc21
12	x	CC(Sc1nc2c(N)ncnc2n1CCOc1ccccc1)C(=O)O (stereo not drawn)
5	1.6	CCN(Cc1ccccc1)C(=O)c1cccnc1
x	-1.1	Cc1onc(-c2c(Cl)cccc2Cl)c1C(=O)NCc1c(F)cccc1Cl
7	x	CN(C)Cc1ccc(C(=O)NN)o1
x	-0.2	FC(F)(F)c1ccnc(NCCNc2nccc(C(F)(F)F)n2)c1
x	-2.7	CC(C)(CC(=O)O)CC(=O)N1CCCN(c2c(Cl)cncc2Cl)CC1
6	6.3	c1ccc(Nc2nc3ccccc3[nH]2)nc1
10	1.3	CN(CC(=O)NC1CCCC1)S(=O)(=O)c1cc(Br)cnc1N
-15	x	Cc1ccc(N2CC(NC(=O)N3CCN(c4ccc(F)cc4)CC3)CC2=O)cc1C (stereo not drawn)
x	1.8	O=C(O)CCOc1ccc(F)cc1
-6	4.7	NC1=NC(=O)/C(=C/c2cccs2)S1
1	x	O=C(CSc1nccn1-c1cccc(F)c1)N1CCN(c2ccc(O)cc2)CC1
-5	x	COc1ccc(Cl)cc1NC(=O)Cn1c(NCC(C)O)nc2ccccc21 (stereo not drawn)
-23	x	CCOC(=O)CSc1nnc2ccccn12
15	x	O=C(CN1CCCCC1)N1N=C(c2cccs2)CC1c1ccc(O)cc1 (stereo not drawn)
18	1.9	O=C1S/C(=C/c2ccccc2)C(=O)N1CO
-12	x	CC(C)NC(=S)N=Nc1c(O)[nH]c2ccc(C(C)C)cc12

# An excerpt; count on the stated rates, not on these rows.
